# Source: PubChem BioAssay (National Center for Advancing Translational Sciences (NCATS))
# RE007 growth inh: less growth of the S. pombe RE007 Vpr strain; AID 651644; hit rate 0.21% among 360,000; S. pombe RE007 Vpr strain, BacTiter-Glo ATP luminescence, 24 h; control for the full effect not named in the record; Potency, µM (titrated, usually from 92.2 µM), without a hit: at the top dose activity change, negative = less growth; active = well fitted falling curve with a large enough effect; inconclusive = small, poorly fitted or top-dose-only effect; inactive = no such curve, though single readings can be large or run the other way;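 note: nearly all actives have a fitted effect of over 50% in size; the assay follows cell death caused by Vpr and the record does not say whether a fall means rescue or toxicity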
#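 Fission yeast RE007 carrying one integrated HIV-1 vpr copy, seeded at OD 0.01 in PMG+AL medium with 23 nL pinned compound. Grown 24 h at 30 degrees; viability read by BacTiter-Glo luminescence after 5 min.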
# StopGo reporter: FMDV 2A StopGo reporter, luciferase signal; human cells with a luciferase reporter of 2A StopGo recoding; control for the full effect not named in the record; Potency, µM (series often up to 57.9 µM), inactives show at the top dose signal change, negative = less light; hit rate 1.2% among 410,000; AID 1159524; active = well fitted falling curve with a large enough effect; inconclusive = small, poorly fitted or top-dose-only effect; inactive = no such curve, though single readings can be large or run the other way; tested in HEK293T cells; note: nearly all actives have a fitted effect of over 45% in size; luciferase light after 4 h
# * = called active by the depositor; ? = inconclusive; & = joins results of further samples; [ ] = remark or other dose. % is set by controls: 0 for no effect and ±100 for the full control effect; potency is the fitted concentration of half-maximal effect. These rows are one share of the data; rates above refer to the full screens.
# Below each compound: RE007 growth inh	StopGo reporter
> O=C(OCC(=O)N1CCC(Cc2ccccc2)CC1)c1ccc(O)cc1
    -20%	-19%
> CSc1ccc(Cn2c(C)c(C(=O)NCCC#N)sc2=O)cc1
    2%[18.4 µM]	-7%
> COc1ccc(NC(=O)Nc2ccc3c(c2)C(=O)N([C@H](C)CO)C[C@@H](C)[C@@H](CN(C)C(=O)C2CCCCC2)OCCCC[C@H](C)O3)cc1
    -2%	-14%
> Cc1cc(Br)cn2c(Cc3ccccc3)c(-c3ccco3)nc12
    -8%	2%
> C#CCNC(=O)C[C@@H]1C[C@@]2(C(=O)OC)CCCCC=C2N(Cc2ccco2)C1=O
    -27%	-20%
> COc1ccc(C=C(C(C)=O)C(=O)c2ccccc2)cc1
    -7%[18.4 µM]	?
> C[C@H]1CN([C@@H](C)CO)C(=O)CCCn2cc(nn2)CO[C@@H]1CN(C)C(=O)Nc1ccccc1
    -18%	0%
> CCCOc1ccc(F)cc1-c1cc(C(=O)Nc2ccc(C(C)C)cc2)[nH]n1
    -4%[18.4 µM]	-10%
> CO[C@@H]1CN(C)C(=O)c2cc(NC(=O)Nc3ccc4c(c3)OCO4)ccc2OC[C@@H](C)N(C)C[C@H]1C
    -4%	0%
> Cc1ccc([C@@H]2C[C@H]3[C@@H](CN2S(=O)(=O)c2ccc(C)cc2)C(=O)C[C@@H](c2ccccc2)N3S(=O)(=O)c2ccc(C)cc2)cc1
    -1%	-11%
> CCOC(=O)C1(CCOc2ccccc2)CCN(Cc2ccc(OCC)c(CO)c2)CC1
    15%	?
> O=C(Nc1ccc(Cl)cc1C(=O)c1ccccn1)c1ccccc1
    9%	-11%
> CC1(c2nc3ccccc3[nH]2)CCC(=O)N1Cc1ccc(F)cc1 (stereo not drawn)
    10%	-11%
> CN(C(=O)c1cccc(NC(=O)Cc2ccc(NC(=O)C3CCCN(C(=O)c4ccccc4)C3)cc2)c1)C1CCCCC1 (stereo not drawn)
    4%	?
> CCOC(=O)CSc1nnc(C)c(C)n1
    11%	-4%

# Continued (3 carried over from the part before).
# Below each compound: RE007 growth inh	StopGo reporter
> CC1(c2nc3ccccc3[nH]2)CCC(=O)N1Cc1ccc(F)cc1 (stereo not drawn)
    10%	-11%
> CN(C(=O)c1cccc(NC(=O)Cc2ccc(NC(=O)C3CCCN(C(=O)c4ccccc4)C3)cc2)c1)C1CCCCC1 (stereo not drawn)
    4%	?
> CCOC(=O)CSc1nnc(C)c(C)n1
    11%	-4%
> CCOC(=O)N1CCN(C(=O)C[C@@H]2C[C@@]3(C(=O)OCC)CCCC=C3N(CCC3=CCCCC3)C2=O)CC1
    4%	0%
> COc1cc(C(O)c2nc(/C=C/c3ccc(C(F)(F)F)cc3)cs2)ccc1F (stereo not drawn)
    ?	?
> C#CCNC(=O)C[C@@H]1C[C@@]2(C(=O)OCC)CCCC=C2N(Cc2ccccc2)C1=O
    -19%	-9%
> O=C(c1ccccc1)N(c1ccccc1)c1nccc2ccccc12
    -5%	-22%
> CCN1C(=O)[C@@H]2[C@@H]3CN(S(=O)(=O)c4ccc(C)cc4)[C@@H](c4ccccc4Cl)[C@@H]3C(=O)C[C@@H]2C1=O
    -5%	-12%
> CC1(C(=O)NCc2ccc3c(c2)OCO3)CCN1C(=O)Cc1cccs1 (stereo not drawn)
    2%[18.4 µM]	-1%
> c1ccc(COc2ccc(-c3cc4nc(NCCCn5ccnc5)ccn4n3)cc2)cc1
    -27%	?
> CCC(c1nc2ccccc2[nH]1)n1c(-c2cnccn2)nc2ccccc21 (stereo not drawn)
    -13%	-10%
> CCCCNC(=O)c1ccc2nc(CC)c(N(C)Cc3ccc(OC)cc3)n2c1
    -17%	-22%
> COc1ccc(Cl)cc1Cn1c(C)c(C(=O)NCc2cccc(C(F)(F)F)c2)sc1=O
    21%[18.4 µM]	-18%
> Cc1nc(C(=O)O)sc1C1(C)CC(c2cccc([N+](=O)[O-])c2)=NO1 (stereo not drawn)
    9%	-3%
> COC(=O)c1c(-c2ccc(N(C)C)cc2)oc2c1C(OC)CCC2 (stereo not drawn)
    -2%	19%
> CC1(C(=O)Nc2cccc3cccnc23)CCN1Cc1ccccc1OC(F)F (stereo not drawn)
    4%[18.4 µM]	?
> CCc1cc(-c2ccc3c(c2)COc2c4ccccc4nn2-3)on1
    -16%	-54%
> CC(C)N(c1ccccc1)c1ccc(NC(=O)[C@@H]2O[C@H](CO)[C@@H](O)[C@H]2O)cc1
    7%[18.4 µM]	-11%
> CCOC(=O)[C@]12CCCC=C1N(Cc1ccco1)C(=O)[C@H](CC(=O)NCC1CCCCC1)C2
    -5%	13%
> COC(C[C@@H](O)C[C@@H](O)[C@@H](C)OCc1ccccc1)OC
    -2%	6%
> O=C(Nc1ccc(Br)cc1Br)Nc1cccc2[nH]c([C@@H]3O[C@H](CO)[C@@H](O)[C@H](O)[C@H]3O)nc12
    11%[18.4 µM]	-17%
> O=C(Nc1cccc(-n2cnnn2)c1)C1CCCN(C(=O)Cc2cccc(Cl)c2)C1 (stereo not drawn)
    -20%	9%
> CCCOc1ccc(F)cc1-c1cc(C(=O)Nc2ccc(F)c(Cl)c2)[nH]n1
    -9%	?
> CCOC(=O)C(=C1Nc2ccccc2N1)n1c(-c2cccnc2)nc2ccccc21
    -20%	5%
> O=C(COc1cccc(Br)c1)N/N=C/c1ccc2c(c1)OCCO2
    7%	33%[activator]
> OC(c1ccccc1)c1nc(-c2cccs2)cs1 (stereo not drawn)
    -10%	25%
> CCN(C(=O)COC(=O)CCC(=O)c1ccc(Cl)cc1)c1c(N)n(Cc2ccccc2)c(=O)[nH]c1=O
    -27%	-20%
> CSC[C@H]1CN(CCc2ccccc2)C(=O)[C@@H]1CC(=O)Nc1ccccc1
    -2%	-1%
> Cn1nc(C(C)(C)C)cc1N1C(=O)CCC1(C)C(=O)NC1CCCC1 (stereo not drawn)
    6%	-7%
> COc1cc(-c2cc(NC(C)=O)c3ncc(-c4ccccc4)n3c2)cc(OC)c1OC
    -4%[18.4 µM]	-16%
> C[C@@H]1CN([C@@H](C)CO)C(=O)c2cc(Br)cnc2O[C@H]1CN(C)C(=O)C1CC1
    -13%	-8%
> O=C(NCCc1ccccc1)C1Cc2c(-c3ccccc3Oc3ccccc3)ccnc2O1 (stereo not drawn)
    -7%	-23%
> Cc1ccc(C(=O)NCCN2CCC(n3c(=O)[nH]c4ccccc43)CC2)cc1C
    -29%	-46%

# One compound at a time, from the list above. Order of screens: RE007 growth inh | StopGo reporter
# O=C(Nc1cccc(-n2cnnn2)c1)C1CCCN(C(=O)Cc2cccc(Cl)c2)C1 (stereo not drawn) is listed as -20% | 9%
# Cn1nc(C(C)(C)C)cc1N1C(=O)CCC1(C)C(=O)NC1CCCC1 (stereo not drawn) is listed as 6% | -7%
# O=C(COc1cccc(Br)c1)N/N=C/c1ccc2c(c1)OCCO2 is listed as 7% | 33%[activator]
# O=C(NCCc1ccccc1)C1Cc2c(-c3ccccc3Oc3ccccc3)ccnc2O1 (stereo not drawn) is listed as -7% | -23%

# (continued)
# Below each compound: RE007 growth inh	StopGo reporter
> COc1ccc(NC(=O)C2(C)CCN2Cc2csc3ccccc23)cc1OC (stereo not drawn)
    7%	?
> Cc1ccc(NS(=O)(=O)c2cccc(C(=O)NC3CCN(Cc4ccccc4)CC3)c2)c(C)c1
    -11%	?
> Cc1cccc(S(=O)(=O)NC(=O)C2(C)CCN2C(=O)CCC2CCCC2)c1 (stereo not drawn)
    6%	-4%
> O=C(COC(=O)/C=C/c1cccc(C(F)(F)F)c1)Nc1cccc(S(=O)(=O)NC2=NCCC2)c1
    14%	-19%
> Cc1cccc(C)c1NC(=O)C1(C)CCC(=O)N1c1cc(C(C)(C)C)nn1C (stereo not drawn)
    4%	-7%
> O=C1NCN(c2ccccc2)C12CCN(C(c1cc3ccccc3o1)c1nnnn1C1CCCCC1)CC2 (stereo not drawn)
    3%	-1%
> O[C@@H]1C[C@H](c2ccccc2)N(CC2CCCCC2)C[C@H]1n1cc(C2CC2)nn1
    -7%	-20%
> COc1cccc(-c2cnc(C(O)c3ccc(C)c(F)c3)[nH]2)c1 (stereo not drawn)
    -15%	38%[activator]
> Cc1ccc(/C(O)=C2\C(=O)C(=O)N(CCCN3CCOCC3)C2c2ccccc2F)cc1 (stereo not drawn)
    13%	-8%
> Cc1ccccc1NC(=O)COC(=O)c1c(C)nn(-c2ccccc2)c1C
    -2%	32%[activator]
> CC1(C(=O)NS(=O)(=O)Cc2cccc(Cl)c2)CCN1C(=O)C1CCCCC1 (stereo not drawn)
    7%	-20%
> COc1ccc(-c2sc3ccccc3c2-c2cc(OC)ccc2C=O)cc1
    -11%	-15%
> COCCN1C[C@@H](CO)O[C@@H](n2cnc3c(N4CCN(c5ccccc5)CC4)ncnc32)C1
    1%	-25%
> COc1ccc(CN(C)C(=O)C2CC(=O)N(c3ccc4c(c3)OCCO4)C2)cc1 (stereo not drawn)
    12%	-15%
> Nc1ncnc2c1ncn2[C@@H]1O[C@H](COP(=O)(O)CP(=O)(O)O)[C@@H](O)[C@H]1O
    -19%	-5%&-18%
> COC(=O)[C@]12CCCCC=C1N(Cc1ccc(Cl)cc1Cl)C(=O)[C@H](CC(=O)NCCCN1CCCC1=O)C2
    2%	-14%
> COc1cc2c(cc1OC)C(c1ccccc1)N(Cc1ccc(S(=O)(=O)NC(=O)c3ccco3)cc1)CC2 (stereo not drawn)
    5%	-16%
> COc1ccc(CCC(=O)c2ccc(OC)cc2)cc1
    4%	11%
> CCCN(CC(=O)NC(=O)NCc1ccccc1)CC(=O)Nc1ccc(F)c(F)c1F
    1%	-17%
> COC(=O)[C@@H](Cc1ccccc1)NC(=O)[C@H]1O[C@@H](n2cnc3c(N)ncnc32)[C@H](O)[C@@H]1O
    18%	-14%
> CC(=O)Nc1ccc(C(=O)NCC(c2ccco2)N(C)C)cc1 (stereo not drawn)
    -12%	6%
> Cc1cccc(C)c1C(O)c1ncc(-c2ccc(Cl)cc2)[nH]1 (stereo not drawn)
    -18%	-12%
> C[C@@H]1CN([C@@H](C)CO)C(=O)c2cc(Br)cnc2O[C@@H]1CN(C)S(=O)(=O)c1ccc(F)cc1
    -5%	-7%
> Cc1cccc(C)c1NC(=O)C1(C)CN(S(C)(=O)=O)CC(=O)N1CC(F)(F)F (stereo not drawn)
    -1%	-10%
> Cc1ccc2c(C)c(C(=O)Nc3cccnc3)oc2c1C
    10%	-3%
> CC1(C(=O)NS(=O)(=O)c2ccccc2Cl)CCN1C(=O)C1(c2ccccc2)CC1 (stereo not drawn)
    9%[18.4 µM]	33%[activator]
> COP(=S)(OC)Oc1ccc(Sc2ccc(OP(=S)(OC)OC)cc2)cc1
    12%	?
> Cc1ccc(S(=O)(=O)N2C[C@H]3C(=O)C[C@@H](c4ccc(Cl)cc4)N(S(=O)(=O)c4ccc(C)cc4)[C@H]3C[C@H]2c2cccc3ccccc23)cc1
    11%	-20%
> Cc1cc(C)c2c(=O)n3c(nc2c1)C(C)NC(=O)c1cccnc1-3 (stereo not drawn)
    -8%	-20%
> COC(=O)C1=C(C(=O)OC)[C@@H]2N(C)c3ccc(OC)cc3[C@@]23C[C@@H](C(=O)OC)N(C(=O)COCc2ccccc2)C3=N1
    1%	-22%
> COc1ccc(OC)c(CN2C(=O)c3ccccc3C2c2nnnn2Cc2ccccc2)c1 (stereo not drawn)
    6%	-12%
> Cc1ccc(C)c(NC(=O)COC(=O)c2c(-c3ccccc3)noc2C)c1
    5%	0%
> CC1C(=O)N(Cc2cn(CCC3OCCCO3)nn2)CCS(=O)(=O)N1Cc1ccc(-c2ccc(Cl)cc2)cc1 (stereo not drawn)
    6%	11µM*
> CCCNC(=O)C1(C)CCN1C(=O)C1(c2ccccc2)CC1 (stereo not drawn)
    -6%	-19%
> COc1ccc(-c2ccc3c(c2)[C@@H]2C[C@H](N(C)S(=O)(=O)c4ccccc4)[C@H]([C@H](C)O)C(=O)N2CC3)cc1
    1%	-17%
> CC(CC(=O)Nc1ccc2c(c1)c(=O)n(C)n2-c1cccs1)c1ccccc1 (stereo not drawn)
    -15%	11%
> Cc1cn([C@H]2C[C@H](O)[C@@H](CNC(=O)[C@H](N)C3CC3)O2)c(=O)[nH]c1=O
    1%	-10%
> CC(=O)N1CCN(c2ccc(NC(=O)c3cccc(F)c3)cc2)CC1
    9%	124%[activator]
> Cc1ccc(CN(C)C(=O)CCNC(=O)c2ccc(Cl)cc2)o1
    -13%	-4%
> CCCCN1C=C(C(=O)c2ccccc2)C(=O)CC1
    3%	2%
> CC1=C(C)N(C)[C@H](c2ccccc2Br)[C@H](O)C1=O
    -10%	-2%
> COCCN(Cc1ccccc1)C(=O)c1cccc(S(=O)(=O)N2CCN(Cc3ccccc3)CC2)c1
    -13%	?
> CCCCc1ccc(NC(=O)COC(=O)c2ccc3ncsc3c2)cc1
    -6%	-23%

# Three entries drawn at random from those above:
# Below each compound: RE007 growth inh	StopGo reporter
> COc1ccc(-c2ccc3c(c2)[C@@H]2C[C@H](N(C)S(=O)(=O)c4ccccc4)[C@H]([C@H](C)O)C(=O)N2CC3)cc1
    1%	-17%
> CC(CC(=O)Nc1ccc2c(c1)c(=O)n(C)n2-c1cccs1)c1ccccc1 (stereo not drawn)
    -15%	11%
> CCCNC(=O)C1(C)CCN1C(=O)C1(c2ccccc2)CC1 (stereo not drawn)
    -6%	-19%
